High-throughput results deposited in PubChem BioAssay by Johns Hopkins Ion Channel Center.
KCNQ2 block: KCNQ2 potassium channel inhibitors, primary screen, cell-based, CHO-K1, FluxOR thallium flux, B-score (AID 2156). B-score at 10 µM. 310,000 compounds, 1.1% hits. 20 min; stronger effect = lower value; only compounds with negative scores are shown here; some inactives read as strong as hits. Potassium voltage-gated channel subfamily KQT member 2 (Rattus norvegicus), O88943;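 active = fluorescence ratio B-score at most minus 3 library SDs, with starting brightness B-score within 2 library SDs, cut at about -5.5 in these data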
Target sequence (O88943 whole entry, looked up): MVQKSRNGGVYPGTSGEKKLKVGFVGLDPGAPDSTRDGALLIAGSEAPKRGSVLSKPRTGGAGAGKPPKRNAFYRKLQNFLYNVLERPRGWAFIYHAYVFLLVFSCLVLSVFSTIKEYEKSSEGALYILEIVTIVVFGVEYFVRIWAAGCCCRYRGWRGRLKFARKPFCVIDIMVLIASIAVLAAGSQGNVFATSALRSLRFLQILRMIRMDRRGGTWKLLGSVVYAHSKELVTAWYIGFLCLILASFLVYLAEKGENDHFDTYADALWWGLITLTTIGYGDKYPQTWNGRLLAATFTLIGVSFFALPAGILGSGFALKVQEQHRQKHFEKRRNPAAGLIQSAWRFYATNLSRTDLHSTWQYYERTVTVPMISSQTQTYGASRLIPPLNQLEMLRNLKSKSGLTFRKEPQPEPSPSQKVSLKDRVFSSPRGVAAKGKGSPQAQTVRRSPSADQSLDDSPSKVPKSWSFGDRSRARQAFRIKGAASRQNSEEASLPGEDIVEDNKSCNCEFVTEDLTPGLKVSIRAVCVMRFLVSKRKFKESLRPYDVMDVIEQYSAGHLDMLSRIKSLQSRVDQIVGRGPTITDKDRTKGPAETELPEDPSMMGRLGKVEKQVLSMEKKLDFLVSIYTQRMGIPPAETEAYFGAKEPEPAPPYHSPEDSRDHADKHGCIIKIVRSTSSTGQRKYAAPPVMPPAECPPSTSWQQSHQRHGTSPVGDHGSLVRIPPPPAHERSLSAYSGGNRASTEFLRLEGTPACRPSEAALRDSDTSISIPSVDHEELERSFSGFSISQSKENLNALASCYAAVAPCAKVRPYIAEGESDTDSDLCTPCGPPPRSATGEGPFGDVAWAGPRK
KCNQ2 block baseline: also measured in KCNQ2 block; calls as there; B-score; measured here: initial fluorescence intensity artifact check;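 brightness before thallium and not channel activity; 0 = typical well and far values either way flag optical interference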
The depositor's hits bear a star; i = inactive. The list is partial; count on the stated rates, not on these rows.

Under each structure: KCNQ2 block	KCNQ2 block baseline
[1] O=C1CCC/C1=c1\s/c(=C\c2cccnc2)c(=O)n1-c1ccccc1
  i	0.92
[2] CC(=O)NCCc1nc2cc(NC(=O)c3cccs3)ccc2n1C
  i	-0.03
[3] COC(=O)c1cnc(Nc2cccc(C(F)(F)F)c2)c([N+](=O)[O-])c1
  i	-0.35
[4] CCN(CC)S(=O)(=O)c1ccc(N2Cc3ccccc3C2=N)cc1
  i	0.58
[5] O=C1CN(C(=O)NCCC(=O)NC2CCCCC2)c2ccccc2N1
  i	0.34
[6] Nc1ccccc1NC(=O)NC(=O)c1ccccc1
  i	-0.45
[7] O=C(O)CSc1ncnc2c1oc1ccccc12
  i	-0.36
[8] COc1cc(C)c(S(=O)(=O)N2CCOCC2)cc1C(C)C
  i	1.9
[9] O=C(O)Cn1c(-c2cscn2)nc2ccccc21
  i	0.13
[10] Cc1ccc(OC(C)C(=O)N=Nc2c(O)[nH]c3ccc([N+](=O)[O-])cc23)cc1 (stereo unspecified)
  i	0.29
[11] CCOc1cc(C)c(S(=O)(=O)N2CCCCC2)cc1C
  i	0.11
[12] CC(C)SCCCCOc1ccc2ccccc2c1
  -6.9*	0.68*
[13] O=C(O)CC(c1ccc(F)cc1F)N1Cc2ccccc2C1=O (stereo unspecified)
  i	0.88
[14] CC(C)NS(=O)(=O)c1ccc(OCC(=O)NC2CCCCCC2)cc1
  i	-0.03
[15] CC[C@@]12C(=O)N(c3cccc(C)c3)C(=O)N1[C@H](c1ccc(Br)cc1)[C@@H]1C(=O)N(C(C)(C)C)C(=O)[C@@H]12
  i	-0.32
[16] Cc1cc(Br)cc(/C=N/NC(=O)c2ccc3c(c2)OCO3)c1O
  i	1.3
[17] COc1ccc(/C=N/NC(=O)CNC(=O)/C=C/c2ccco2)cc1OC
  i	0.54
[18] N#CCCN1CCC(NC(=O)OCc2ccccc2)CCC1=O (stereo unspecified)
  i	-0.04
[19] COc1ccc(-c2cc(C(=O)NCC3CCCO3)c3cc(C(C)C)ccc3n2)cc1 (stereo unspecified)
  i	0.01
[20] C=CCc1ccccc1OCC(O)CNC (stereo unspecified)
  i	-0.03
[21] CCOC(=O)C1=C(C)NC(=O)NC1c1c(OCC(=O)N2CCCCC2)ccc2ccccc12 (stereo unspecified)
  i	-0.46
[22] CS(=O)(=O)N(CC(=O)NCc1ccco1)c1cccc([N+](=O)[O-])c1
  i	-0.04
[23] N#C/C(C(=O)NCc1ccccc1)=C1\SC(CCO)C(=O)N1c1ccccc1 (stereo unspecified)
  i	1.5
[24] CCn1c(CSCc2ccc(F)cc2)nnc1SCC(=O)N1CCN(c2ccccc2)CC1
  i	0.58
[25] COc1ccc(N(C(=O)CNC(=O)c2cccs2)C(C(=O)NC2CCCC2)c2cccnc2)cc1 (stereo unspecified)
  i	0.54
[26] O=C(COC(=O)c1cccc(O)c1)NCc1ccc2c(c1)OCO2
  i	-0.68
[27] COCC1CCN(C(=O)CCc2nnc(C3(c4ccc(Cl)cc4)CCC3)o2)C1 (stereo unspecified)
  i	0.27
[28] CCCNC(=O)CN(Cc1ccccc1F)S(=O)(=O)c1ccc(C)cc1
  i	-0.06
[29] O=C(Nc1ccccc1C(=O)NC(Cc1ccccc1)C(=O)O)c1ccccc1 (stereo unspecified)
  i	1.4
[30] O=C(CSc1nnc(NC(=O)c2cccc(F)c2)s1)NC1CCCC1
  i	1.3
[31] Cc1ccc(C(=O)CNc2nc3c(c(=O)[nH]c(=O)n3C)n2Cc2ccccc2)cc1
  i	0.88
[32] Cc1ccc(C)c(NC(=O)CN(C)C(=O)c2cc3ccccc3o2)c1
  i	0.2
[33] CCc1ccc(NC(=O)CSc2nnc(COc3ccc4c(c3)CCCC4)o2)cc1
  i	-0.21
[34] CC(CNC(=O)c1ccc(Br)o1)NC(=O)c1ccc(Br)o1 (stereo unspecified)
  i	0.39
[35] CCn1c(=O)c2cc(C(=O)N(C)CC(OC)OC)sc2c2ccccc21
  i	-0.66
[36] COc1cc2c3c(c1)C1(C(=O)N3C(C)(C)C=C2C)C(C#N)=C(N)Oc2cc(C)oc(=O)c21 (stereo unspecified)
  i	0.44
[37] Nc1ccccc1SCc1csc(-c2ccc(Cl)cc2)n1
  i	0.64
[38] CC(C)c1nccn1CCC(=O)O
  i	0.77
[39] COc1ccc(OC)c(NC(=O)C2CC(=O)N(c3ccccc3)C2)c1 (stereo unspecified)
  i	0.37
[40] Cc1cc(Nc2cccc(Cl)n2)n(-c2ccccc2)n1
  i	1.1

Among those listed so far, three contain a nitro group on carbon:
Under each structure: KCNQ2 block	KCNQ2 block baseline
[3] COC(=O)c1cnc(Nc2cccc(C(F)(F)F)c2)c([N+](=O)[O-])c1
  i	-0.35
[10] Cc1ccc(OC(C)C(=O)N=Nc2c(O)[nH]c3ccc([N+](=O)[O-])cc23)cc1 (stereo unspecified)
  i	0.29
[22] CS(=O)(=O)N(CC(=O)NCc1ccco1)c1cccc([N+](=O)[O-])c1
  i	-0.04

More structures.
Under each structure: KCNQ2 block	KCNQ2 block baseline
[41] O=C(Cc1ccccc1F)NC1CCSc2ccccc21 (stereo unspecified)
  i	-1.5
[42] O=C(Nc1ccccc1Cl)C(=O)c1cn(CC(=O)N2CCOCC2)c2ccccc12
  i	-1.7
[43] COc1ccc(/C=N\NC(=O)CCc2c(C)n[nH]c2C)c(OC)c1OC
  i	0.83
[44] COC(=O)c1cccc(NC(=O)NC2CCCN2S(=O)(=O)c2ccc(Cl)cc2)c1 (stereo unspecified)
  i	0.16
[45] O=C(CSc1c[nH]c2ccccc12)N1CCOCC1
  i	-0.38
[46] CCCOc1ccc(-c2c(C(=O)N/N=C(\C)c3ccco3)nnn2-c2nonc2N)cc1
  i	1.3
[47] FC(F)(F)c1cc(-c2ccco2)nc(NCCc2ccccc2)n1
  i	0.25
[48] CN(Cc1nc(CCc2ccccc2)no1)Cc1cccs1
  i	1.5
[49] O=C(Oc1ccc2ccc(OC(=O)N3CCCCCC3)cc2c1)N1CCCCCC1
  i	1.3
[50] COc1ccccc1NC(=O)CSc1nnc(COc2ccc(Cl)cc2)n1Cc1ccco1
  i	1.1
[51] Cc1cccc(NC(=S)N(CCN2CCOCC2)Cc2cc3cc4c(cc3[nH]c2=O)OCO4)c1
  i	-1.3
[52] COc1ccc(C(=O)Cc2ccc(F)cc2)c(OC)c1
  i	-0.03
[53] Cc1nn(CC(=O)Nc2ccc(C(=O)N3CCCCC3)cc2)c(=O)c2ccccc12
  i	1
[54] CCN1CCN(C(=O)c2c(-c3c(Cl)cccc3Cl)noc2C)CC1
  i	1.1
[55] COc1ccc(-c2cc(-c3cccs3)nc(OC)c2C#N)cc1OC
  i	0.68
[56] COc1ccc(C(=O)NC2CCN(CC(=O)NC3CCCCC3)CC2)cc1
  i	1.4
[57] CCOc1ccc(-n2c(SCC(N)=O)nc3sc4c(c3c2=O)CCN(C)C4)cc1
  i	0.23
[58] CCCOc1ccc(N2C(=O)CC(N3CCN(CCN=CC4C(=O)CC(C)(C)CC4=O)CC3)C2=O)cc1 (stereo unspecified)
  i	-0.22
[59] CS(=O)(=O)N(CC(=O)N/N=C/c1cccs1)c1cccc(Cl)c1Cl
  i	0.05
[60] COc1cc(CN2CCN(Cc3ccc(C)cc3)CC2)c([N+](=O)[O-])cc1OC
  i	-0.1
[61] COc1ccc(-c2cc(C(F)(F)F)nc(NCc3ccco3)n2)cc1OC
  i	0.24
[62] COc1ccc(Br)cc1CNC(=O)C1CCC(=O)N1C(C)C (stereo unspecified)
  i	-2.7
[63] COc1cc2ncc(S(=O)(=O)c3ccccc3)c(N3CCCC(C)C3)c2cc1OC (stereo unspecified)
  i	-1.3
[64] CCOc1ccc(-c2nnc(SCC(=O)N3CCOCC3)o2)cc1
  i	0.77
[65] Cc1nnc2sc(-c3ccc(-c4ccc(Cl)c(C(F)(F)F)c4)o3)nn12
  i	1.1
[66] COC(=O)c1sccc1NC(=O)CC1C(=O)NCCN1C(=O)Nc1ccccc1 (stereo unspecified)
  i	2.8
[67] O=C(N/N=C/c1ccccc1O)NC12CC3CC(CC(C3)C1)C2
  i	3.1
[68] COc1ccc(-n2nc(C(=O)NCC(=O)NC3CCCC(C)C3C)c3ccccc3c2=O)cc1 (stereo unspecified)
  i	1.3
[69] Cc1ccc2nc(SCC(=O)NCc3ccco3)nc(=O)n2c1
  i	0.88
[70] O=C(NCc1cccs1)C(=O)c1cn(CC(=O)N2CCOCC2)c2ccccc12
  i	0.03
[71] CCc1nn(C(CC)C(=O)NCCCc2ccccc2)c(=O)c2cc3occc3n12 (stereo unspecified)
  i	0.55
[72] CC(Nc1nc(=S)nc(Nc2ccc(F)cc2)[nH]1)c1ccccc1 (stereo unspecified)
  i	-0.96
[73] O=C(OCC#CCSc1nnc(-c2ccccc2)o1)c1cccs1
  i	-0.24
[74] CC(=O)c1ccc(NC(=O)CCCN2C(=O)/C(=C/C(C)=C/c3ccccc3)SC2=S)cc1
  i	-0.97
[75] NC(=O)CSc1nc2ccccc2nc1SCC(N)=O
  i	0.82
[76] CC(C)(CNC(=O)c1ccc([N+](=O)[O-])c(Cl)c1)CNC(=O)c1ccc([N+](=O)[O-])c(Cl)c1
  i	-0.06
[77] CCN1CCCC1CNC(=O)CCNC(=O)c1cc(OC)c(OC)c(OC)c1 (stereo unspecified)
  i	0.3
[78] CC1CC(c2ccccc2)n2nc(NC(=O)CCc3ccccc3)nc2N1 (stereo unspecified)
  i	-1.6
[79] COC(=O)C[C@](O)(CCCC(C)(C)O)C(=O)O[C@@H]1C(OC)=C[C@]23CCCN2CCc2cc4c(cc2[C@H]13)OCO4
  i	-0.48
[80] COc1cccc(CNC(=O)CN2C(=O)CC(c3ccccc3)=Nc3ccccc32)c1
  i	-1.2
[81] CN1Cc2c(N3CCOCC3)nc3sc(C(=O)c4ccccc4)c(N)c3c2CC1(C)C
  i	0.84
[82] COc1ccc(C(=O)NC2CCN(S(=O)(=O)c3ccccc3)CC2)cc1
  i	-0.99
[83] CCOC(=O)c1oc2ccccc2c1NC(=O)c1cccs1
  i	0.79
[84] COc1cc(C(F)(F)F)c(C(=O)N(C)Cc2ccc(Cl)c(Cl)c2)cn1
  i	-0.56
[85] CC(=O)N1CCc2cc(S(=O)(=O)Nc3ccccc3N3CCN(C)CC3)ccc21
  i	-0.71
[86] Cn1c(CC(=O)NC(C)(C)CO)c(Sc2ccccc2)c2ccccc21
  i	-0.15
[87] CC12CCC(=O)N1C(C(=O)NCc1ccc(Cl)cc1Cl)CS2 (stereo unspecified)
  i	-1.3
[88] O=C(CCn1c(=O)oc2ccccc21)N(Cc1ccccc1)c1ccccn1
  i	-1.6
[89] Cc1ccccc1Cn1c(Cc2ccccc2)nc2ccccc21
  i	-2.8
[90] O=C(c1cc2nc(-c3ccccc3)cc(-c3ccccc3)n2n1)N1CCN(C(=O)c2ccco2)CC1
  i	-0.85
[91] Cn1c(SCc2c(F)cccc2Cl)nnc1-c1cnccn1
  i	1.1
[92] O=C(c1ccccc1)C(c1ccccc1)c1ccccc1
  i	0.94
[93] O=C(OC(C(=O)NC1CCCC1)c1ccccn1)c1cccs1 (stereo unspecified)
  i	-0.15
[94] COc1ccc(N2C(N)=C(C#N)C(c3ccsc3)C3=C2CCCC3=O)c(OC)c1 (stereo unspecified)
  i	1.4
[95] COc1ccc(OC)c(NC(=O)COC(=O)c2cc3c(s2)CCC3)c1
  i	-1.1
[96] CCC(C)(C)n1nnnc1CN(Cc1ccc(Cl)cc1)Cc1ccco1
  i	1.1
[97] COc1cc(OC)cc(C(=O)Nc2ccccc2N2CCOCC2)c1
  i	-1.7
[98] CCOC(=O)c1c(C)[nH]c(C2=NNC(=NC(C)COC)SC2)c1C (stereo unspecified)
  i	-1.7
[99] C=CCc1cccc2cc(C(=O)Nc3ccc(F)cc3)c(=O)oc12
  i	0.68
[100] CCCCC(CC)C(=O)NCCCN1CCN(CCCNC(=O)C(CC)CCCC)CC1 (stereo unspecified)
  i	-1.1

Full records as entered above:
COc1ccc(OC)c(NC(=O)COC(=O)c2cc3c(s2)CCC3)c1 reads KCNQ2 block = i; KCNQ2 block baseline = -1.1
O=C(OC(C(=O)NC1CCCC1)c1ccccn1)c1cccs1 (stereo unspecified) reads KCNQ2 block = i; KCNQ2 block baseline = -0.15

The listing picks up, repeating the five entries before the break.
Under each structure: KCNQ2 block	KCNQ2 block baseline
[96] CCC(C)(C)n1nnnc1CN(Cc1ccc(Cl)cc1)Cc1ccco1
  i	1.1
[97] COc1cc(OC)cc(C(=O)Nc2ccccc2N2CCOCC2)c1
  i	-1.7
[98] CCOC(=O)c1c(C)[nH]c(C2=NNC(=NC(C)COC)SC2)c1C (stereo unspecified)
  i	-1.7
[99] C=CCc1cccc2cc(C(=O)Nc3ccc(F)cc3)c(=O)oc12
  i	0.68
[100] CCCCC(CC)C(=O)NCCCN1CCN(CCCNC(=O)C(CC)CCCC)CC1 (stereo unspecified)
  i	-1.1
[101] CC1Cc2ccccc2N1C(=O)CSc1nnnn1C1CCCC1 (stereo unspecified)
  i	0.93
[102] Cc1ccc(NC(=O)CNC(=O)c2ccc(C)s2)nc1
  i	-2
[103] O=C1CN(C(=O)COC(=O)c2ccccc2O)c2ccccc2N1
  i	0.49
[104] CC1(C)C2CCC1(C)C(OC(=O)CSc1nc(N)cc(=O)[nH]1)C2 (stereo unspecified)
  i	0.23
[105] O=C(COC(=O)C1(c2ccc(Cl)cc2)CCCC1)Nc1ncc(C(F)(F)F)cc1Cl
  i	0.19
[106] CC1(C)CC(=O)c2c(Cc3ccccc3)noc2C1
  i	-0.42
[107] Cc1nc(Cl)sc1C(=O)O
  i	-0.62
[108] Cc1ccc(NC(=O)CSCc2cc(=O)n3ccsc3n2)cc1
  i	-0.73
[109] CCn1c(SCc2cccc(C(F)(F)F)c2)nnc1-c1ccco1
  i	0.33
[110] COc1ccccc1C(=O)COC(=O)c1ccc(N(C)C)cc1
  i	0.13
[111] CCOc1ccc(N(CC)S(=O)(=O)c2cccc3nsnc23)cc1
  i	-0.21
[112] CC(=O)c1cccc(S(=O)(=O)N(Cc2cc3cc4c(cc3[nH]c2=O)OCCO4)CC2CCCO2)c1 (stereo unspecified)
  i	1.1
[113] Cc1cc(NC(=O)Nc2cccc([N+](=O)[O-])c2)no1
  i	0.12
